CtBP-E1A inh: qHTS Assay for Inhibitors of the CtBP/E1A Interaction | CtBP / adenovirus E1A interaction (AlphaScreen) | AlphaScreen GST-E1A/His-CtBP binding, 1536-well; stronger effect = lower value; control for the full effect not named in the record | activity change, % (no concentration beside the values) | actives 0.49% (n = 340,000) | AID 651724, 2012; in the data active means activity change below about -65%; inconclusive means about -30% to -65%; inactive means above about -30%; further: on the % scale 0 is the no-effect control and ±100 the full control effect; compound concentration not given in the record
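In 5 uL wells, 23 nL compound meets equimolar GST-E1A and His-CtBP (5X stock 125 nM each) for 2 h, 37 °C. Beads (5X, 50 ug/mL) then 1 h, 37 °C, dark.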
PINK1 expr mod: A Quantitative High throughput Screen to Identify Chemical Modulators of PINK1 Expression. PINK1 immunofluorescence, high-content cytometry, 24 h. Potency, µM (titrated, usually from 76.6 µM), for the others: at the top dose activation (PINK1 increase), actives largely listed as activators. actives 0.2% (n = 410,000); active = well fitted activation curve with a large enough effect; inconclusive = small, poorly fitted or top-dose-only effect; inactive = flat fitted curve, though single readings scatter; cell line not stated here;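 further: potency means the concentration at half of the fitted maximal effect; % of control where 0% means no effect; nearly all actives have a fitted effect of over 65% in size; a mitochondrial uncoupler was the plate control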
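Compound titrations (5 concentrations, 24 h) on a stable cell line; DMSO and CCCP controls. Endpoint: fixed-cell PINK1 immunofluorescence with mitochondrial, cell and nuclear markers, scanned by microplate cytometer.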
TRPML1 ag: qHTS for Agonists of the Human Mucolipin Transient Receptor Potential 1 (TRPML1); Mucolipin-1 (Homo sapiens), Q9GZU1; TRPML1-expressing cells, Ca2+ dye fluorescence, FDSS; host cell line not named in the record; reference of the full effect not given here; activation, % (test concentration not listed); actives 0.12% (n = 410,000); AID 624414, 2012; in the data active = activation above about 50%; inconclusive = about 30% to 50%; inactive = below about 30%; further: 0% is about no effect; the text of the record puts the active cut at 80%
Target sequence (Q9GZU1 whole entry, looked up): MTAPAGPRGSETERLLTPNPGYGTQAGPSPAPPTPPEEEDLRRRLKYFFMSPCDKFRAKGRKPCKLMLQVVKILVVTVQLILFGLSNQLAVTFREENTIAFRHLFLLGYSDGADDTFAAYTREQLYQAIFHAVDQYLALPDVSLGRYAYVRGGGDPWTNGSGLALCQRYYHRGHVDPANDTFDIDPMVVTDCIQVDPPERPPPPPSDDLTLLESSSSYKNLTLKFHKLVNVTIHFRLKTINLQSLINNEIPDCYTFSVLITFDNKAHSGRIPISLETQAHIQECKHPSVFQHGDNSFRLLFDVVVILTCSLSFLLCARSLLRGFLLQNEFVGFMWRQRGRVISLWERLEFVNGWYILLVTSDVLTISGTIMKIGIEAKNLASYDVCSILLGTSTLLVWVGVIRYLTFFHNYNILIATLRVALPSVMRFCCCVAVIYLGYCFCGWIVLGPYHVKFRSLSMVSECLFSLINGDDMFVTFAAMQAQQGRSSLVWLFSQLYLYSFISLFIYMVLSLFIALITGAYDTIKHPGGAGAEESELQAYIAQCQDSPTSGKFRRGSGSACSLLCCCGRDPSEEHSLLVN
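Kinetic FDSS Ca2+ read in Tet-induced TRPML1-DL cells (ABD Ca8 dye plus quencher, 45-90 min RT loading): baseline, then compound, then 110 s agonist window; EC80 agonist 54-4 at 4uM final added afterwards for a 110 s antagonist window.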
Six1-Eya2 inh: qHTS Assay for Inhibitors of the Six1/Eya2 Interaction. Homeobox protein SIX1 (Homo sapiens) + Protein phosphatase EYA2 (Homo sapiens), …. AlphaScreen GST-Six1/His-Eya2 binding, biochemical; stronger effect = lower value; control for the full effect not named in the record. activity change, % (concentration not given with the values). actives 0.56% (n = 360,000); in the data active = activity change below about -65%; inconclusive = about -30% to -65%; inactive = above about -30%; further: on the % scale 0 is the no-effect control and ±100 the full control effect
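Compounds are tested against tagged Six1 and Eya2 proteins bridged by glutathione donor and nickel acceptor beads; after a one-hour incubation at 37 °C without light, AlphaScreen emission is recorded.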
D2 ag: Beta-Arrestin HTS for Positive Allosteric Modulators of the Human D2 Dopamine Receptor: Agonists; AID 624465, 2012; actives 0.084% (n = 360,000); D(2) dopamine receptor (Homo sapiens), P14416; DiscoveRx PathHunter D2 beta-arrestin, luminescence, 90 min; 100% = 57 uM dopamine signal; activation, % (test concentration not listed); in the data active = activation above about 40%; inconclusive = about 15% to 40%; inactive = below about 15%; further: compound concentration not given in the record; the text of the record calls up to 30% inactive
Target sequence (P14416 whole entry, looked up): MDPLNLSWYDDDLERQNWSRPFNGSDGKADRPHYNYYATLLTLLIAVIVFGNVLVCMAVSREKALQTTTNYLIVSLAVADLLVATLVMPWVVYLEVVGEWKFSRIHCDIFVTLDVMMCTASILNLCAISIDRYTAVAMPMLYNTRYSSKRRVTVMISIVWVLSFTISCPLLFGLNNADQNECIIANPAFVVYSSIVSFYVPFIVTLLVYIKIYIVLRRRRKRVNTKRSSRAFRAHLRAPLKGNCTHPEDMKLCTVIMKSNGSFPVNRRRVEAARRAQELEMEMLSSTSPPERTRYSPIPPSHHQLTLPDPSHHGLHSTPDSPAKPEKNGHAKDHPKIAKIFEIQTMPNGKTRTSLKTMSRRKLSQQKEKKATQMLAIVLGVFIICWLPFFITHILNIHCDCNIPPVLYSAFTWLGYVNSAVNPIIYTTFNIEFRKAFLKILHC
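DiscoveRx PathHunter D2 beta-arrestin cells (2,100/well) attached overnight, then compound-stimulated 90 min at 37 C in HBSS/10 mM HEPES/0.1% Tween-20 buffer; beta-galactosidase complementation read by luminescence after 1 h at ambient temperature. Dopamine 57 uM final (EC100) as control.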
TRPML1 blocker: qHTS for Inhibitors of the Human Mucolipin Transient Receptor Potential 1 (TRPML1); TRPML1-inducible cells, Ca2+ dye fluorescence, FDSS; stronger effect = lower value; inhibition of EC80 agonist-evoked calcium signal; activity change, negative = inhibition, % (concentration not given with the values); AID 624415, 2012; actives 0.02% (n = 390,000); Mucolipin-1 (Homo sapiens), Q9GZU1; in the data active means activity change below about -50%; inconclusive means about -30% to -50%; inactive means above about -30%;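 further: stimulus is agonist 54-4 at its EC80 concentration; on the % scale 0 is the no-effect control and ±100 the full control effect; compound concentration not given in the record; the text of the record puts the active cut at -80%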
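Calcium fluorescence in TRPML1-DL cells induced overnight with Tet: a 110 s read after compound pin addition, then a 110 s antagonist read after challenge with 54-4 at 4 uM final (EC80).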
The depositor's hits bear a star; [ ] = remark or other dose.

COc1cc(C(=O)NCCc2ccc3c(c2)OCCO3)ccc1OCC(=O)N1CCOCC1 was read as CtBP-E1A inh 6, PINK1 expr mod 0.0%, TRPML1 ag -0.8, Six1-Eya2 inh -4, D2 ag 0.3 and TRPML1 blocker 9.
COc1ccc(C)cc1-n1nnnc1SCC(=O)N1CCC(C(=O)Nc2nccs2)CC1 was read as CtBP-E1A inh 3, PINK1 expr mod 1.5%[38.3 µM], TRPML1 ag -0.5, Six1-Eya2 inh -1, D2 ag -2.8 and TRPML1 blocker 7.
For Cc1ccc(NC(=O)C2CCN(C(=O)[C@@H]3Cc4ccccc4CN3)CC2)cc1 the results were CtBP-E1A inh -8, PINK1 expr mod 1.1%, TRPML1 ag 0.3, Six1-Eya2 inh 4, D2 ag -3.1 and TRPML1 blocker 34.
CC(=O)c1c(C)nc(C)nc1NC(=O)C(C)C was read as CtBP-E1A inh 3, PINK1 expr mod -1.4%, TRPML1 ag -0.1, Six1-Eya2 inh 2, D2 ag -4.4 and TRPML1 blocker -1.
`Cc1ccc(S(=O)(=O)ON=C2CCN(S(=O)(=O)c3ccccc3)CC2)cc1` gave CtBP-E1A inh -4, PINK1 expr mod 0.0%, TRPML1 ag 0.0, Six1-Eya2 inh 6, D2 ag -5.0 and TRPML1 blocker -14.
Screening Cc1ccc(-n2nc3c(N4CCC(C(=O)NC(C)c5ccccc5)CC4)nnc(C)c3c2C)cc1 (stereo not given) returned PINK1 expr mod -0.7%, TRPML1 ag 1.5 and TRPML1 blocker -11.
CC(=O)N1CCN(C(=S)c2ccc(N(C)C)cc2)CC1 was read as CtBP-E1A inh 5, PINK1 expr mod 2.6%[38.3 µM], TRPML1 ag 0.0, Six1-Eya2 inh 2, D2 ag -1.1 and TRPML1 blocker 2.
For COC(=O)[C@H]1C[C@@]2(O)CN(S(=O)(=O)c3ccc(C)cc3)C[C@@]2(OC(=O)Nc2cccs2)C[C@H]1C(=O)OC the results were CtBP-E1A inh -15, PINK1 expr mod 3.6%, TRPML1 ag -0.1, Six1-Eya2 inh -4, D2 ag -6.0 and TRPML1 blocker 0.
`O=S(=O)(c1ccc(SCc2ccc(Br)cc2)nc1)N1CCOCC1` gave CtBP-E1A inh 0, PINK1 expr mod 5.7%, TRPML1 ag 0.9, Six1-Eya2 inh -1, D2 ag -0.5 and TRPML1 blocker 9.
For CCOc1ccccc1/C=c1\sc2nc(-c3ccco3)nn2c1=O the results were CtBP-E1A inh 5, PINK1 expr mod 2.1%, TRPML1 ag -0.1, Six1-Eya2 inh -4, D2 ag -3.6 and TRPML1 blocker -4.
Screening COc1ccc(OC)c(NC(=O)CCN2CCC(C)CC2)c1 returned CtBP-E1A inh 0, PINK1 expr mod -0.2%[38.3 µM], TRPML1 ag 0.6, Six1-Eya2 inh 0, D2 ag 1.3 and TRPML1 blocker 10.
`CC(C)CN1CCNC(=O)C1CC(=O)NCCCN1CCCc2ccccc21` (stereo not given) gave CtBP-E1A inh -10, PINK1 expr mod 3.0%, TRPML1 ag -0.1, Six1-Eya2 inh -4, D2 ag -1.8 and TRPML1 blocker -22.
OC(c1ccccc1)c1nc(-c2cc(F)cc(F)c2)cs1 (stereo not given) was read as CtBP-E1A inh -10, PINK1 expr mod 6.1%, TRPML1 ag 0.0, Six1-Eya2 inh 13 and D2 ag -6.8.
`O=C(CCCCn1c(=S)[nH]c2ccsc2c1=O)NCc1ccc2c(c1)OCO2` gave CtBP-E1A inh 2, PINK1 expr mod 0.4%, TRPML1 ag 0.9, Six1-Eya2 inh -10, D2 ag -1.9 and TRPML1 blocker 3.
For O=C(c1cncs1)N1CCCC(CNS(=O)(=O)c2cccs2)C1 (stereo not given) the results were CtBP-E1A inh 4, PINK1 expr mod 0.4%, TRPML1 ag -0.3, Six1-Eya2 inh -3, D2 ag 0.9 and TRPML1 blocker 0.
COc1ccc(C)cc1-n1nnnc1SCc1nc2ccccc2c(=O)[nH]1 was read as CtBP-E1A inh -11, PINK1 expr mod 14%, TRPML1 ag 0.7, Six1-Eya2 inh -12, D2 ag 2.5 and TRPML1 blocker -12.
COc1cc(C2CC(=O)Oc3cc(C)c(Br)c(C)c32)cc(OC)c1OC (stereo not given) was read as CtBP-E1A inh -2, PINK1 expr mod 2.3%, TRPML1 ag 0.2, Six1-Eya2 inh -10, D2 ag -1.7 and TRPML1 blocker 38.
For Cc1ccc(Cc2cnc(N3C(=N)SC(C)C3=O)s2)cc1 (stereo not given) the results were CtBP-E1A inh -12, PINK1 expr mod 10.0%, TRPML1 ag -0.9, Six1-Eya2 inh -15, D2 ag -3.5 and TRPML1 blocker -12.
`Cc1ccc(NC(=O)c2sc(N)nc2C)cc1` gave CtBP-E1A inh 3, PINK1 expr mod -2.3%, TRPML1 ag 0.8, Six1-Eya2 inh 9, D2 ag 2.5 and TRPML1 blocker -12.
For CCC1Oc2ccc(C)cc2N(CC(=O)N(Cc2ccncc2)Cc2ccco2)C1=O (stereo not given) the results were CtBP-E1A inh -5, PINK1 expr mod 0.8%, TRPML1 ag 0.0, Six1-Eya2 inh 0, D2 ag -0.6 and TRPML1 blocker -11.

Gathered by group, those above containing an aryl thioether with sulfur outside any ring
COc1ccc(C)cc1-n1nnnc1SCC(=O)N1CCC(C(=O)Nc2nccs2)CC1 was read as CtBP-E1A inh 3, PINK1 expr mod 1.5%[38.3 µM], TRPML1 ag -0.5, Six1-Eya2 inh -1, D2 ag -2.8 and TRPML1 blocker 7.
`O=S(=O)(c1ccc(SCc2ccc(Br)cc2)nc1)N1CCOCC1` gave CtBP-E1A inh 0, PINK1 expr mod 5.7%, TRPML1 ag 0.9, Six1-Eya2 inh -1, D2 ag -0.5 and TRPML1 blocker 9.
COc1ccc(C)cc1-n1nnnc1SCc1nc2ccccc2c(=O)[nH]1 was read as CtBP-E1A inh -11, PINK1 expr mod 14%, TRPML1 ag 0.7, Six1-Eya2 inh -12, D2 ag 2.5 and TRPML1 blocker -12.

The list continues:
For CC(C)(C)NS(=O)(=O)c1ccc(CCC(=O)N2CCCC2)cc1 the results were CtBP-E1A inh -7, PINK1 expr mod -2.2%, TRPML1 ag 0.4, Six1-Eya2 inh 4, D2 ag -0.7 and TRPML1 blocker 3.
For O=C(NCc1ccccc1)/C(=C\c1cccc([N+](=O)[O-])c1)NC(=O)c1ccco1 the results were CtBP-E1A inh -1, PINK1 expr mod 0.3%, TRPML1 ag -1.1, Six1-Eya2 inh -9, D2 ag -0.3 and TRPML1 blocker -8.
`COc1ccc(S(=O)(=O)Nc2cccc3c2O[C@H](CN(C)C(=O)NC2CCCCC2)[C@@H](C)CN([C@H](C)CO)C3=O)cc1` gave CtBP-E1A inh 7, PINK1 expr mod -0.7%, TRPML1 ag -0.7, Six1-Eya2 inh 5, D2 ag -0.2 and TRPML1 blocker -9.
COc1cccc(C(=O)Nc2c3c(nn2-c2ccc(Cl)cc2)CS(=O)(=O)C3)c1 was read as PINK1 expr mod -2.7%, TRPML1 ag 0.8 and TRPML1 blocker 14.
O=C1OCC(c2ccccc2)=C1c1ccccc1[N+](=O)[O-] was read as CtBP-E1A inh 2, PINK1 expr mod 0.7%, TRPML1 ag 0.5, Six1-Eya2 inh -4, D2 ag 0.1 and TRPML1 blocker -4.
`COC1(OC)C(=N/O)/C(=N\O)CCC1O` (stereo not given) gave CtBP-E1A inh 4, PINK1 expr mod 2.2%[38.3 µM], TRPML1 ag -0.5, Six1-Eya2 inh 2, D2 ag -1.8 and TRPML1 blocker -3.
O=C(CCOc1cccc(Br)c1)Nc1ccc(F)c(S(=O)(=O)N2CCOCC2)c1 was read as CtBP-E1A inh 7, PINK1 expr mod 0.8%, TRPML1 ag -0.3, Six1-Eya2 inh 2, D2 ag -1.7 and TRPML1 blocker -14.
For O=S(=O)(N/N=C\C=C\c1ccccc1)c1ccccc1 the results were CtBP-E1A inh -16, PINK1 expr mod -0.4%[38.3 µM], TRPML1 ag 0.1, Six1-Eya2 inh -5, D2 ag 0.5 and TRPML1 blocker -11.
O=C(O)c1cc([N+](=O)[O-])cc2c1nnn2O was read as CtBP-E1A inh -17, PINK1 expr mod -0.3%, TRPML1 ag 0.2, Six1-Eya2 inh -20, D2 ag -10 and TRPML1 blocker 2.
`COC(=O)CCC(=O)OC1(C)C(=O)C=C2C=C(C3CC3)N(C3CCCC3)C=C2C1=O` (stereo not given) gave PINK1 expr mod 0.4%, TRPML1 ag -0.3, Six1-Eya2 inh 0, D2 ag 7.1 and TRPML1 blocker 24.
O=C(CSc1nc(-c2ccccc2)cc(=O)[nH]1)N1CCOCC1 was read as CtBP-E1A inh -1, PINK1 expr mod 1.0%, TRPML1 ag -0.7, Six1-Eya2 inh 4, D2 ag -4.3 and TRPML1 blocker 4.
`Cc1ccc(NC(=O)/C(=C\c2cccc([N+](=O)[O-])c2)NC(=O)c2cccs2)cc1` gave CtBP-E1A inh -1, PINK1 expr mod 6.9%, TRPML1 ag 0.9, Six1-Eya2 inh 1, D2 ag -2.0 and TRPML1 blocker -8.
Screening O=C(NN=C1CCCCC1)NC1CCCCC1 returned CtBP-E1A inh -11, PINK1 expr mod 1.3%, TRPML1 ag -0.9, Six1-Eya2 inh -1, D2 ag -2.1 and TRPML1 blocker 0.
For CCC(CC)NC(=O)c1cc2c(C)nn(Cc3ccccc3Cl)c2s1 the results were CtBP-E1A inh -2, PINK1 expr mod 0.4%, TRPML1 ag 1.9, Six1-Eya2 inh -2, D2 ag -3.5 and TRPML1 blocker 17.
COc1ccccc1NC(=S)NC1CCC(CC2CCC(NC(=S)Nc3ccccc3OC)CC2)CC1 (stereo not given) was read as CtBP-E1A inh -4, PINK1 expr mod 0.7%, TRPML1 ag 0.9, Six1-Eya2 inh -9, D2 ag 1.3 and TRPML1 blocker -24.
Screening COc1c2c(nc3ccccc13)OC(C(C)(O)COC(C)=O)C2 (stereo not given) returned CtBP-E1A inh 2, PINK1 expr mod 16%[38.3 µM], TRPML1 ag 0.4, Six1-Eya2 inh 0, D2 ag 2.3 and TRPML1 blocker 3.
Screening COc1ccc(Cl)cc1NC(=O)Cn1c(=O)oc2cc(S(=O)(=O)N3CCCCCC3)ccc21 returned PINK1 expr mod 0.2%, TRPML1 ag 0.5 and TRPML1 blocker -12.
`COc1ccc(CCNC(=O)C(=O)c2c[nH]c3ccccc23)cc1OC` gave CtBP-E1A inh 3, PINK1 expr mod 0.5%, TRPML1 ag 0.7, Six1-Eya2 inh -8, D2 ag -3.7 and TRPML1 blocker -4.

Source: PubChem
